Screening data deposited in PubChem by several laboratories.
Bfl-1 A1 inh: inhibitors of the anti-apoptotic protein A1, read as caspase activation; MEF A1-2A-BIM cells, Caspase-Glo 3/7 luminescence, 3 h; percent of clofoctol response, vehicle zero; caspase activation, % (no concentration beside the values); AID 2462; 330,000 tested, 0.066% active;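 active = over half of replicate activation scores above 10%, or exactly half above 10 with the replicate mean above 10; inconclusive = replicate mean below 10 yet half the replicates above 10; inactive = over half of replicates below 10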;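 also: wells of about 30 µL received 50 nL stock; many hits fall short of the cut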
Calb FLC: C. albicans growth modulation with fluconazole; C. albicans CaCi-2 (fluconazole-resistant clinical isolate) + fluconazole, Alamar Blue growth, 48 h; growth inhibition, % (concentration not given with the values); 300,000 tested, 0.57% active; AID 1979;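 active = most replicates above 75%; inconclusive = exactly half above 75%; inactive = most below 75%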;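 also: all wells also contain fluconazole at 8 µg/ml as a sub-toxic cotreatment; 0% = median of DMSO wells and 100% = median of geldanamycin control wells; wells of about 8 µL received 7.5 nL stock; the first replicate is given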
T cruzi repl: T. cruzi replication inhibition | T. cruzi beta-gal in NIH3T3, luminescence, 90 h | inhibition, % (concentration not given with the values) | 300,000 tested, 1.4% active;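 active = mean inhibition across valid replicates above about 55%, limit read from the data; inconclusive = mean below that limit but half or more replicates reach it; inactive = mean below it, under half of replicates reach it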;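 also: signal also drops with host cell toxicity which is not excluded here; 0% = plate median of DMSO wells and 100% = zero luminescence signal; higher percent means less beta-gal luminescence so fewer parasites; stock transfer was 50 nL into about 50 µL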
Beta apoptosis: beta cell apoptosis inhibition; AID 435005; 300,000 tested, 0.8% active; INS-1E cytokine-induced death, ATP luminescence, 48 h; percent of positive-control rescue, neutral wells zero; protection from apoptosis, % (test concentration not listed);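 active = all replicates at 75% or more, or half of them and the mean; inconclusive = half reach 75% but not the mean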;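 also: 0% = cytokine-treated negative control wells and 100% = positive control rescue; higher means more ATP so stronger rescue from cytokine killing; wells of about 40 µL received 100 nL stock; the first replicate is given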
RanGTP-Impb inh: disruptors of Ran-importin-beta complex formation – biochemical, FRET, CFP-Ran, YFP-importin-beta, homogeneous, primary screen. 300,000 tested, 1.1% active. cell-free CFP-Ran/YFP-importin-beta FRET ratio. inhibition, % (no concentration beside the values);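 active = most replicates above 15%; inconclusive = exactly half above 15%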;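 also: 0% = DMSO wells and 100% = Ran loaded with GDP instead of GTP; wells of about 40 µL received 100 nL stock; the first replicate is given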
LANA-H2B inh: blocks KSHV LANA binding to histone H2A/H2B; AID 2629; inhibition, % (test concentration not listed); 320,000 tested, 0.6% active; cell-free LANA-H2A/H2B peptide, fluorescence polarization; in the data active = inhibition mostly above about 10%, no sharp cut-off; inactive = mostly below about 6.7%;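 also: stock transfer was 7.5 nL into about 10 µL; 0% = median of vehicle wells and 100% = median of positive control wells; one replicate is shown; the record names a cut of 25% in any replicate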
Target sequence (Q9QR71 whole entry, looked up): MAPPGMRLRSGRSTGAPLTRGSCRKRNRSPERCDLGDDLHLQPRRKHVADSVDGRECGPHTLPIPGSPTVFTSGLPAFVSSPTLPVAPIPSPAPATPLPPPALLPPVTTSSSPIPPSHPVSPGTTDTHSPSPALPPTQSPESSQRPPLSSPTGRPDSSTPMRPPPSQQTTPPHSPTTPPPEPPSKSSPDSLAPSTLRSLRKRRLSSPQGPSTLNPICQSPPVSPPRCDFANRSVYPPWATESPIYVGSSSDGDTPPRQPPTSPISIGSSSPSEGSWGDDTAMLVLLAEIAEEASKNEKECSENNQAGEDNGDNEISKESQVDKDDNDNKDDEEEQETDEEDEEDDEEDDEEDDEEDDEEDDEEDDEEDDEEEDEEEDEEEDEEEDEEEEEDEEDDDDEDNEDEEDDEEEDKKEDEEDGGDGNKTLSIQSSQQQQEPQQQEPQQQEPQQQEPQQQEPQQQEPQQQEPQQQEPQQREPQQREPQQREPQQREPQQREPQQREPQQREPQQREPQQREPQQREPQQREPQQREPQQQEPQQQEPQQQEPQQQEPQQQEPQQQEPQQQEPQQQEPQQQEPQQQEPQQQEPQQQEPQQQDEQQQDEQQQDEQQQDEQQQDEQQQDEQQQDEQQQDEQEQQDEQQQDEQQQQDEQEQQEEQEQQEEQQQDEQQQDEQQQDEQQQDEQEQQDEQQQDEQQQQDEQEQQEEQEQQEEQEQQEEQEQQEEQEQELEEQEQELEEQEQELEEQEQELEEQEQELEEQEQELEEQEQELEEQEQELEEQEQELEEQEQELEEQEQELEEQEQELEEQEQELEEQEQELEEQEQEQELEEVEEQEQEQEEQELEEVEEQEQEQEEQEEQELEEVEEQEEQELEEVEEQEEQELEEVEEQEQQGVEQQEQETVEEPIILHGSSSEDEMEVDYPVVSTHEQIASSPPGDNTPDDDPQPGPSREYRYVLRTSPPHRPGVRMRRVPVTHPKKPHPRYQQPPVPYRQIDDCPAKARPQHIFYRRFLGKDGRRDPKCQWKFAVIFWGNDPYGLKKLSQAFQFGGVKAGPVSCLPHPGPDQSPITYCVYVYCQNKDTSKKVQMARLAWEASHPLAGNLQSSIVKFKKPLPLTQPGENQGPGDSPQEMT
AF4-AF9 inh: blocks AF4 peptide binding to human AF9; P42568; AlphaScreen, biotin-AF4 peptide binding to FLAG-AF9; inhibition, % at 10 µM; 350,000 tested, 0.47% active; AID 651704;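 active = every replicate reaching a set inhibition limit, whatever the replicate mean, cut at about 25% in these data; inconclusive = mean inhibition reaches that limit but some replicates miss it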;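 also: 0% = plate neutral control median and 100% = total signal loss; the record names both 10 and 1 µM as test concentration; the first replicate is given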
Vif TR-FRET: inhibitors of Vif binding to APOBEC3G peptide, primary screen, biochemical, TR-FRET, GST-Vif 1-94, biotin-A3G peptide, dose response retest (AID 1117319) | TR-FRET GST-Vif / biotin-A3G peptide binding; higher % means a stronger effect; test concentration not given here; strong numbers were not always called active | inhibition, %, or IC50 in µM where a hit was titrated | 260,000 tested, 0.57% active;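 active = above the screen mean plus three standard deviations and confirmed in dose response; inconclusive = results disagree or hit not tested in dose response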;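 also: Vif residues 1-94 fused to GST binding biotinylated APOBEC3G peptide 110-148; 0% = full assay without inhibitor and 100% = GST in place of GST-Vif; retest series ran down from 100 µM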
An asterisk follows results filed as active; ? = inconclusive; / = no result given; & = joins results of further samples.

no.	SMILES	Bfl-1 A1 inh	Calb FLC	T cruzi repl	Beta apoptosis	RanGTP-Impb inh	LANA-H2B inh	AF4-AF9 inh	Vif TR-FRET
1	Cc1nc2c(n1O)CCC/C2=N\O	-0.3	-7	-5	-6	4.2	1.1	/	4%
2	CCOC(=O)CCCNC(=O)COC(=O)c1cccc(C)c1O	-0.1	0	5	-11	-0.5	5.4	/	0%
3	Cc1cccc(C(=O)NCCC(=O)N2CCc3ccccc3C2)c1	-0.5	/	/	-1	/	-2.3	0.0	-7%
4	CCc1c(C)nc2ncnn2c1N1CCC(C(=O)Nc2cccc(C(C)=O)c2)CC1	0.9	17	-4	4	4.4	7.5	/	31%
5	CCC(=O)N1c2ccc(S(=O)(=O)NCCc3ccc(OC)c(OC)c3)cc2CC1C (stereo not drawn)	-0.3	-1	-4	-14	3.5	-7.2	0.4	0%
6	CCc1nnc(NC(=O)CSC(=S)N2CCOCC2)s1	-0.2	1	-3	-9	2.9	3.2	-1.1	2%
7	O=C(CCN1C(=O)C2C3CCC(C3)C2C1=O)Nc1ccc(Br)cc1 (stereo not drawn)	0.3	-1	-11	-2	2.2	2.4	/	21%
8	CN(CC(=O)Nc1ccc(Cl)c(Cl)c1)C(=O)CNC(=O)Cc1ccccc1	0.0	/	/	-4	/	-2.6	-7.5	/
9	O=C(Nc1ccc(Nc2ccncc2)cc1)c1ccc(Nc2ccnc3ccc([N+](=O)[O-])cc23)cc1	/	-2	-6	/	6.0	/	-0.6	-2%
10	Cc1nnc(SC(C)C(=O)N(C)C2CCCCC2)n1N (stereo not drawn)	1.1	/	/	2	/	-5.1	-1.3	-9%
11	Nc1ccc(C(=O)OCC(=O)N2CCN(C(=O)c3ccco3)CC2)cc1[N+](=O)[O-]	-0.4	2	-6	-5	-0.7	-1.1	-6.2	-1%
12	S=C(NCc1ccc(Cl)cc1)NC1CCCCC1	0.4	-17	10	2	-0.5	0.2	/	/
13	Oc1ccc(-c2nncn2-c2ccccc2)cc1	0.5	-1	-15	-2	3.5	-0.9	-0.5	10%
14	Cc1ccc(-c2nnn(CC(=O)Nc3cccc4c3CCCC4)n2)o1	-0.1	-4	-4	3	2.1	2.3	/	-2%
15	Cn1ccsc1=NC(=O)c1ccc(OC(F)(F)F)cc1	-3.5	-5	6	1	3.8	-14	-0.9	33%
16	COc1ccc(C)cc1N(CC(=O)NC1CCCC1)C(=O)CCC(=O)Nc1nc(C)cs1	0.3	1	13	-5	0.8	3.3	1.2	2%
17	COc1ccc(C(=O)NNC(=S)NC(=O)c2ccc(Cl)cc2)cc1	0.0	88*	12	11	7.4	3.6	-0.6	/
18	CCc1ccc(NC(=O)NCCN2CCN(c3ccc(OC)cc3)CC2)cc1	0.6	9	-3	1	-1.2	1.7	-2.7	-112%
19	CC(CCC(=O)Nc1nncs1)C(=O)O (stereo not drawn)	-0.7	-4	-14	-9	0.6	5.5	-7.6	-1%
20	CN(C)c1nc(-c2ccccc2)nnc1C(F)(F)F	0.4	0	/	5	-2.9	4.9	/	-3%
21	CCN(CC)S(=O)(=O)c1ccc(N2CCCCC2)c(NC(=O)c2ccncc2)c1	0.4	1	31	0	1.2	-2.3	1.9	-3%
22	CCCC(=O)NCCCc1nc2ccccc2n1CC	-0.1	-1	1	-4	5.3	2.3	-4.1	0%
23	CC(C(=O)N1CCCC1)N1CCN(S(=O)(=O)c2ccc(C(C)(C)C)cc2)CC1 (stereo not drawn)	-0.2	/	/	-2	/	5.0	-5.6	0%
24	CCOC(=O)[C@H]1[C@H]2COc3ccc(C)cc3[C@@H]2N2C(=O)[C@@H](CO)NC(=O)[C@@]12C	0.2	/	/	-2	/	0.1	-2.8	/
25	CCOC(=O)N1CCC(NS(=O)(=O)c2ccc(C#N)cc2)CC1	1.5	-3	-2	3	3.7	-1.0	-0.3	5%
26	CC(C)(C)c1ccccc1OCCN1CCCC1	1.2	-16	60*	0	1.7	4.1	4.7	16%
27	CC(C)CSc1nc2c(c(=O)[nH]c(=O)n2C)n1CC(O)COc1cccc2ccccc12 (stereo not drawn)	/	1	25	/	0.1	/	/	-4%
28	COC(=O)CC1=C(C(=O)OC)[C@@H](c2ccccc2[N+](=O)[O-])C(C#N)=C(N)O1	0.6	0	-23	-6	-0.1	0.6	-10	-3%
29	CC(=O)Nc1cccc(S(C)(=O)=O)c1	1.9	-14	-17	-3	1.4	-4.2	4.2	/
30	CC(C)CN(C(=O)CCC(=O)OCC(=O)NCCc1ccccc1)c1c(N)n(CC(C)C)c(=O)[nH]c1=O	-0.1	1	-12	2	1.5	1.7	-2.5	/

The listing continues.
Each structure is followed by: Bfl-1 A1 inh | Calb FLC | T cruzi repl | Beta apoptosis | RanGTP-Impb inh | LANA-H2B inh | AF4-AF9 inh | Vif TR-FRET
[31] O=C(CSc1nc2ccc(S(=O)(=O)N3CCOCC3)cc2[nH]1)N1CCOCC1
→ 0.1 | -2 | -6 | 2 | -1.9 | 1.9 | / | 1%&-2%
[32] COc1ccccc1N(CC(O)COc1ccccc1)S(=O)(=O)c1ccccc1 (stereo not drawn)
→ -0.3 | -2 | -1 | 3 | -2.3 | -5.1 | / | 30%
[33] COC(=O)C[C@H]1c2cc(C(F)(F)F)ccc2S(=O)(=O)N1Cc1ccccc1OC
→ 0.3 | 2 | -13 | -4 | 1.8 | 1.7 | -2.2 | /
[34] CC(=O)Nc1ccc(NC(=O)COc2cc(O)c3c(c2)OC(C)(C)CC3=O)cc1
→ 0.2 | 0 | -4 | -2 | 3.3 | 3.1 | 0.4 | /
[35] Cc1cccc(NC(=O)CN(CC2CCCO2)C(=O)c2oc3ccc(F)cc3c2C)c1C (stereo not drawn)
→ -0.6 | / | / | 2 | / | 0.9 | 1.6 | -7%
[36] CCOC(=O)C1(Cc2cccc(F)c2)CCN(Cc2cn(CC)nc2C)CC1
→ -0.5 | -5 | 4 | -5 | -1.1 | 0.7 | -0.4 | -1%
[37] Cc1cccc(NC(=O)C23CCC(C)(C(=O)O2)C3(C)C)c1 (stereo not drawn)
→ 0.6 | -19 | -9 | -8 | 2.2 | -4.4 | 2.0 | /
[38] CC(=O)NS(=O)(=O)c1ccc(NC(=O)c2cc(-c3cccs3)nc3ccccc23)cc1
→ 0.3 | 8 | -21 | 1 | 2.7 | -5.1 | / | 5%
[39] COc1ccc(/C(O)=C2/C(=O)C(=O)N(CCN(C)C)C2c2ccccn2)cc1OC (stereo not drawn)
→ 0.7 | -2 | -10 | -1 | 23* | 2.3 | / | 9%
[40] CCOc1ccc(CNC(=O)CCCc2cn(C)c3ccccc23)cc1
→ -0.7 | 4 | 15 | -12 | -0.4 | -0.5 | -6.6 | -1%
[41] CCOC(=O)c1c(NC(=O)c2nn(CC)cc2Br)sc2c1CCCCC2
→ -0.1 | 2 | 49 | 7 | -4.8 | 3.4 | / | 7%
[42] CCOC(=O)N1CCN(C(=O)c2cc(COc3ccc(Cl)cc3OC)on2)CC1
→ -0.7 | 0 | 9 | / | 1.6 | 1.4 | -11 | /
[43] COc1ccc(NC2c3ncccc3C(=O)N2Cc2cccs2)cc1 (stereo not drawn)
→ 0.1 | -11 | -37 | 3 | -2.7 | 0.9 | 8.1 | 12%
[44] COc1ccc(NC(=O)CCS(=O)(=O)c2ccc3c(c2)CCN3C(C)=O)cc1
→ 1.3 | -5 | -29 | -6 | 0.2 | -3.2 | -0.8 | /
[45] NC(=O)c1cc(Br)cc(C2CCCCC2)c1O
→ 1.3 | 3 | 6 | -8 | 0.0 | 2.5 | -0.2 | ?
[46] O=C(CCc1nc2ccccc2s1)OCc1ccccc1
→ 0.1 | -5 | -13 | 2 | -1.9 | 1.3 | / | 3%
[47] COCCN(CC(=O)NCc1ccc(OC)cc1)C(=O)CCC(=O)Nc1nccs1
→ -0.3 | 2 | 0 | -4 | -3.3 | -5.1 | / | 2%
[48] Cc1cccc(NC(=O)Cn2c(=O)n(CCC(=O)NC3CCCC3)c(=O)c3ccccc32)c1
→ -0.2 | -10 | 9 | -5 | -3.8 | 0.2 | / | -5%
[49] C[C@H](CO)N1C[C@H](C)[C@@H](CN(C)C(=O)Nc2ccccc2)Oc2c(NC(=O)Nc3ccc4c(c3)OCO4)cccc2C1=O
→ 0.5 | / | / | 0 | / | 4.8 | -2.9 | /
[50] Cc1ccc(NC(=O)CN(C)C(=O)COC(=O)CNS(=O)(=O)c2ccc(Br)cc2Cl)cc1
→ 0.5 | -1 | -9 | -9 | -3.7 | 0.3 | -0.5 | /
[51] CCN(CC(=O)Nc1ccc(N2CCOCC2)cc1)CC(=O)NC(C)(C)C
→ 0.2 | 2 | 11 | -4 | -1.4 | 1.0 | / | -10%
[52] COc1ccc(/C=N/NC(=O)CCc2c(C)n[nH]c2C)cc1OC
→ 1.0 | 6 | -14 | -2 | 1.1 | -9.7 | / | 23%
[53] COc1ccccc1OCCC(=O)OCC(=O)c1c(N)n(C)c(=O)n(C)c1=O
→ 0.8 | 1 | 13 | 0 | -12 | 3.8 | 0.0 | 11%
[54] O=C(NC1(C(F)(F)F)NC(=O)N(Cc2ccco2)C1=O)c1cccnc1 (stereo not drawn)
→ -0.2 | -3 | 0 | -2 | -0.3 | 0.9 | / | 0%
[55] O=C(CN1CCCCC1)Nc1cccc([N+](=O)[O-])c1
→ 0.3 | -1 | -3 | -2 | -2.5 | 1.2 | / | 3%
[56] CCOc1ccc(C(CCc2ccccc2)NC(=O)c2ccc(OC)c(OC)c2)cc1OCC (stereo not drawn)
→ 0.4 | 19 | 19 | 2 | 4.4 | -2.0 | / | -3%
[57] CS/C(N)=N/N=C/c1cc(Br)cc(Br)c1O
→ -1.0 | 25 | -14 | 5 | -5.2 | -4.3 | -0.8 | -3%
[58] C=CCOc1ccc(C2C(C(=O)c3ccco3)=C(O)C(=O)N2c2nnc(C)s2)cc1 (stereo not drawn)
→ -3.7 | -5 | -6 | -3 | 4.0 | 4.6 | 1.7 | -19%
